# VDR inhibitor: inhibitors of human vitamin D receptor; P11473; VDR-SRC2-3 peptide fluorescence polarization, 2 h; Potency, µM, for inactives: max response, negative = inhibition, usual class: inhibitors; 400,000 tested, 0.93% active; AID 504847; active means well fitted inhibition curve with a large enough effect; inconclusive means small, poorly fitted or top-dose-only effect, or another doubt; inactive means no such curve, though single readings can be large or run the other way; further: series mostly up to about 120 µM
# Target sequence (P11473 whole entry, looked up): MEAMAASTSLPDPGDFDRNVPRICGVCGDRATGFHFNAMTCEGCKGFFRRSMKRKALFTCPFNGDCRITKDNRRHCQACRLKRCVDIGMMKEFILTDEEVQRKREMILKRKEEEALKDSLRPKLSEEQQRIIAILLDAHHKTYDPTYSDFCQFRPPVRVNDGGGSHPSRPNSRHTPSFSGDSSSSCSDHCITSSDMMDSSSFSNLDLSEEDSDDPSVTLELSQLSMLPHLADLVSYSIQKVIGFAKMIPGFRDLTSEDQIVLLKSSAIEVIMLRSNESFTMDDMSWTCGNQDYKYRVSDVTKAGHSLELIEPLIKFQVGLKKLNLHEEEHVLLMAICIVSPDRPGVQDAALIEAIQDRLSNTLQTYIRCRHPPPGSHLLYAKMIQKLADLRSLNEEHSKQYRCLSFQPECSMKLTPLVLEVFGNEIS
#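 Two reagent solutions held at 4 deg C in the dark were dispensed, compounds pinned at 23 nl, and the mixture incubated 2 h at room temperature. Read-out: fluorescence polarization of VDR–SRC2-3 peptide binding.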
# Numbers without * were called inactive; ? = inconclusive; & = joins results of further samples. On the % scale 0 is the no-effect control and ±100 the full control effect; potency means the concentration at half of the fitted maximal effect.
mol | VDR inhibitor
O=C(NCC1CCN(Cc2ccccc2F)CC1)Nc1cc(F)ccc1F | 2%
COc1cc(CNc2ccc3[nH]c(=O)[nH]c3c2)ccc1OCc1ccccc1 | 14%
COc1ccc([N+](=O)[O-])cc1N(CC(=O)NCC1CCCO1)S(C)(=O)=O (configuration not stated) | -7%
CC(=O)/C(N=Nc1cc2c(cc1[N+](=O)[O-])OCCO2)=C(\C)O | ?
Cc1cc(C(=O)OC(C)C(=O)Nc2nc(-c3ccccc3)cs2)c(C)o1 (configuration not stated) | 6%
COc1cc(-c2nc(CN(C)Cc3nnc(C)o3)c(C)o2)ccc1F | -2%
CCOC(=O)c1c(C)n(C)c2cc([N+](=O)[O-])c(O)c([N+](=O)[O-])c12 | -13%
Cc1ccc(CN=C2Nc3ccccc3CS2)cc1 | -6%
COc1ccccc1Oc1ccc2c(c1)C(=O)N(c1cccc(O)c1)C2=O | 2%
Cc1ccc(C(C)C)c(OCc2ccc(C(=O)N/N=C/c3ccc(C(=O)O)cc3)cc2)c1 | -4%

# (further entries)
mol | VDR inhibitor
Cc1ccc(C)c(NC2=NC3(CCCCC3)N=C(N)N2)c1 | -10%
N#CCCSc1nc(N2CCOCC2)c2c(c1C#N)CCCC2 | -4%
COc1ccc(C(=O)Nc2ccccc2C(=O)N2CCCCCC2)cc1 | -7%
CCN(CC)S(=O)(=O)c1ccc2c(c1)c(=O)c(C(=O)N1CCN(c3ccccc3OC)CC1)cn2C | -14%
CN(Cc1nnc(SCC(=O)NCCc2ccccc2)n1C)S(=O)(=O)c1ccccc1 | 11%
CC(C)c1cc(CNC(=O)c2cc(COc3cncc(Cl)c3)on2)on1 | -7%
COc1ccccc1N(CC(=O)NCc1cccnc1)S(C)(=O)=O | -8%
CCOC(=O)c1c(-c2ccccc2)c[nH]c1C | 5%
CCCCCCc1nc2ccccc2c(=O)n1NC(=O)c1c(O)c2c(n(CC(C)C)c1=O)CCCC2 | 2%
Cc1cccc(N(CC(=O)Nc2c(C)n(C)n(-c3ccccc3)c2=O)S(C)(=O)=O)c1 | -1%

# The list continues:
mol | VDR inhibitor
COc1cccc(NC(=O)Nc2ccccc2SC)c1 | -8%
CC(=O)c1cccc(CN2CCCC(N3CCN(c4ccccc4F)CC3)C2)c1 (configuration not stated) | -8%
CC(=O)c1sc(NC(=O)CN2C(=O)C3CCCCC3C2=O)nc1-c1ccccc1 (configuration not stated) | -13%
CSc1ccc(/C=N/NC(=O)CN2CCN(Cc3ccc(C)cc3)CC2)cc1 | -26%
O=C(CSc1ncnc2nc[nH]c12)c1ccc([N+](=O)[O-])cc1 | -11%
CSC1=NCCN1C(=O)c1ccc(S(=O)(=O)N(C)C)cc1 | -21%
Cc1nn(-c2ccccc2)c(N2CCCC2)c1/C=N/NC(=S)Nc1cc(C(F)(F)F)ccc1Cl | -22%
CC(=O)Nc1ccc(N2C(=O)CC(c3ccccc3)CC2=O)cc1 | -4%
Cc1ccc(NC(=O)Cn2ccn(-c3ccccc3)c(=O)c2=O)cc1 | -1%
Brc1ccc2ncnc(NCc3cccnc3)c2c1 | 2%

# Remaining list, next part:
mol | VDR inhibitor
COc1ccc(-n2nc(C(=O)N3CCN(c4cccc(C)c4)C(C)C3)c3c4ccccc4n(C)c3c2=O)cc1Cl (configuration not stated) | -15%
Cc1c(-n2cc(C(=O)c3cc(F)ccc3O)cc(C#N)c2=O)c(=O)n(-c2ccccc2)n1C | -1%
CCOC(=O)CNC(=O)c1ccc(C#CC2(O)CCCCC2)cc1 | -8%
CC1(C)N=C(N)N=C(N)N1CCCCc1ccccc1 | -2%
COC(=O)C1CCN(C(=O)CSc2nc3nc(C)cc(C)n3n2)CC1 | -13%
CCOC(=O)c1c(NC(=S)N2CCOCC2)sc2c1CCN(C(=O)OCC)C2 | ?
CS(=O)(=O)NCCSCc1ccccc1 | -2%
CCNc1nc(OCC)nc(N2CCC(Cc3ccccc3)CC2)n1 | -14%
Oc1ccccc1/C=N/n1c2ccccc2c2ccccc21 | -4%
Cc1ccc(-c2nc3c(c(=O)c4ccccc4n3C)c(=O)n2Cc2ccco2)cc1 | -16%

# Additional entries.
mol | VDR inhibitor
COc1ccc2[nH]c(C(=O)NCCN3CCOCC3)cc2c1 | 12%
Cc1ccc(C(=O)C[n+]2cc(-c3ccccc3)n3c2CCCCC3)cc1 | -5%&-2%
CN(C)c1ccc(C(CNC(=O)Cc2cccc3ccccc23)N(C)C)cc1 (configuration not stated) | 5%
CN(c1ccccc1)S(=O)(=O)c1ccc(C(=O)Nc2nnc(C3=COCCO3)o2)cc1 | -6%
CN(C(=O)CSc1nnc(N)s1)C1CCCCC1 | 1%
O=C(NCC(=O)N(c1cccnc1)C(C(=O)NC1CCCCC1)c1ccccc1F)c1ccco1 (configuration not stated) | 3%
COc1ccc(N(C)C2=NS(=O)(=O)c3ccccc32)cc1 | -4%
CC(C)C[C@@H](CNCC(=O)[C@H](Cc1c[nH]c2ccccc12)NC(=O)c1[nH]cnc1C(=O)N[C@@H](C)CN)NC(=O)c1nc[nH]c1C(=O)N[C@@H](CC(=O)O)C(=O)O | ?
CCOC(=O)c1cnc[nH]c1=O | -1%
CCCCN(C)c1ncnc2c1cnn2-c1cccc(Cl)c1 | 8%

# (list continues)
mol | VDR inhibitor
CCOC(=O)C1CCN(c2cc3c(cc2NC(=O)c2ccccc2)n(C)c(=O)n3C)CC1 | -11%
CC(C)C[C@H](NC(=O)c1nc[nH]c1C(=O)N1CCN(C(=O)OC(C)(C)C)CC1)C(=O)OCc1ccccc1 | -18%
Cc1cc(-c2ccc(NS(=O)(=O)c3ccccc3)c(C)c2)ccc1NS(=O)(=O)c1ccccc1 | 16%
Cc1cc(NC(=O)CCCC(=O)NCc2cccs2)no1 | 9%
Nc1c(N(CCC2=CCCCC2)C(=O)C2CC2)c(=O)[nH]c(=O)n1Cc1ccccc1 | -1%
CC(C)CN(C(=O)COC(=O)C12CC3CC(CC(O)(C3)C1)C2)C1CCS(=O)(=O)C1 (configuration not stated) | -2%
Cc1ccc(C(=O)OCC(=O)Nc2ccc(S(N)(=O)=O)cc2)c(O)c1 | 6%
O=c1c(S(=O)(=O)c2ccccc2)cn(Cc2cccc(F)c2)c2cc(N3CCOCC3)c(F)cc12 | 0%
CC1C(=O)N2CCCc3cc(S(=O)(=O)NCCc4ccccc4)cc1c32 (configuration not stated) | -2%
CS(=O)(=O)c1ncc(Cl)c(C(=O)Nc2c(C(=O)c3ccc(Cl)cc3)oc3ccccc23)n1 | 11%

# Part of the list above in order of SMILES length, descending.
mol | VDR inhibitor
Cc1cc(-c2ccc(NS(=O)(=O)c3ccccc3)c(C)c2)ccc1NS(=O)(=O)c1ccccc1 | 16%
CCOC(=O)C1CCN(c2cc3c(cc2NC(=O)c2ccccc2)n(C)c(=O)n3C)CC1 | -11%
CC1C(=O)N2CCCc3cc(S(=O)(=O)NCCc4ccccc4)cc1c32 (configuration not stated) | -2%

# Next part.
mol | VDR inhibitor
COc1ccccc1CN1CC(C(=O)N2CCC(OC)CC2)CCC1=O (configuration not stated) | -8%
O=C(NCCO)C(c1ccccc1)c1ccccc1 | 11%
S=C(Nc1ccc(Cl)c(Cl)c1)NC1CCCCC1 | -1%
Cc1c(/C=N/NC(=O)CNc2ccccc2)c2ccccn2c1C(=O)c1ccc(Cl)cc1 | 13%
Cn1cccc1C(=O)OCC(=O)NCCc1ccc(S(N)(=O)=O)cc1 | 3%
O=C(Nc1nnc(COc2ccccc2)s1)C1CCN(S(=O)(=O)c2ccc(Cl)cc2)CC1 | -9%
COc1ccc2c(C)cc(SCC(=O)NCC3CCCO3)nc2c1 (configuration not stated) | 8%
Cc1ccc(NC(=O)Nc2cc(C)on2)cc1 | -6%
Cc1occc1C(=O)N/N=C/C1=C(N2CCOCC2)C(=C\c2ccc(Cl)cc2Cl)/CC1 | -5%
CC(C)CS(=O)(=O)C1=NSC2=NC(=O)/C(=C\c3ccc(OC(=O)c4ccco4)cc3)C(=N)N21 | ?

# Exported as labelled records: entries from further up
> CS(=O)(=O)NCCSCc1ccccc1
  VDR inhibitor = -2%

> CCNc1nc(OCC)nc(N2CCC(Cc3ccccc3)CC2)n1
  VDR inhibitor = -14%

> Oc1ccccc1/C=N/n1c2ccccc2c2ccccc21
  VDR inhibitor = -4%

# Next part.
mol | VDR inhibitor
Cc1nc2ccccn2c1C(=O)N/N=C/c1ccccc1[N+](=O)[O-] | -8%
Cc1cc(C(=O)NCC(=O)Nc2ccc(F)c(F)c2)c(C)o1 | -5%
COc1ccc(-c2oc3cc(O)c(OC)c(O)c3c(=O)c2OC)cc1O | 7%
O=C(NCCNC(=O)c1ccccc1O)c1ccccc1O | 5%
Cc1cccc(NC(=O)c2ccc(F)c(S(=O)(=O)N3CCN(c4ccc(F)cc4)CC3)c2)c1 | 14%
Cc1ccnc(NC2CCCCC2)c1 | 1%
CCN1CCN(c2c(S(=O)(=O)c3ccc(C)c(C)c3)cnc3ccc(F)cc23)CC1 | -12%&14%
CCOc1ccccc1C(=O)Nc1ccc(S(=O)(=O)N(Cc2ccccc2)c2ccccc2)cc1 | 8%
CCOC(=O)C1CCN(Cc2ccccc2C)CC1 | -1%
Cc1ccc(CN2CCN(Cc3c(C)nn(C(C)C)c3C)CC2CCO)o1 (configuration not stated) | 11%

# (more compounds)
mol | VDR inhibitor
Fc1ccc(Cn2ccc(-c3cnc(-c4ccccc4)s3)n2)cc1 | 0%
CCOC(=O)c1c(S(=O)(=O)N2CCCC(C(=O)N3CCN(c4cccc(C)c4C)CC3)C2)c(C)n(C)c1C (configuration not stated) | 9%
O=C(Cn1c2[n+](c3ccc(C(F)(F)F)cc31)CCCCC2)Nc1c(F)cccc1F | 6%
COc1cc(C(=O)OCc2cc(=O)n3ccsc3n2)cc(OC)c1OC | 10%
O=C(O)/C(=C\c1ccc(Cl)c([N+](=O)[O-])c1)c1ccc(S(=O)(=O)N2CCCC2)s1 | -7%
O=C(Nc1nnc(S(=O)(=O)N2CCCC2)s1)c1ccccc1F | 0%&-3%
CCN(CCCNC(=O)c1[nH]c(C)c(C(C)=O)c1C)c1ccccc1 | 11%
CC(C)c1ccc(N2C(=O)CSC23C(=O)N(Cc2cccc(F)c2)c2ccccc23)cc1 (configuration not stated) | -1%
CCCCNC(=O)Cn1nc(-c2ccc(C)cc2)ccc1=O | -3%
CN(C(=O)CCc1nnc(Cc2ccc(-c3ccccc3)cc2)o1)C1CCOCC1 | -1%

# Further results follow:
mol | VDR inhibitor
COc1ccc(C(C)C)cc1S(=O)(=O)N1CCN(c2ccccc2)CC1 | -9%
CN(Cc1ccc(F)cc1)S(=O)(=O)c1nnc(NC(=O)c2ccc(F)cc2)s1 | 1%
Cc1cccc(OCc2ccc(C(=O)Nc3cc(C)on3)o2)c1 | 8%
CC(C)CC(=O)N1CCC(O)(CS(=O)(=O)c2ccc(Cl)c(Cl)c2)CC1 | -6%
CCCC(=O)N1CCc2cc(OC)c(OC)cc2C1COc1ccc(C(=O)OC)cc1 (configuration not stated) | -11%
Cc1ccc(OCC(=O)Nc2nonc2-c2ccc(C)c(C)c2)cc1C | 19%
CCOC(=O)c1c(NC(=O)/C=C/c2ccc(Cl)cc2)sc2c1CCC(C)C2 (configuration not stated) | -12%
COc1cc(C(=O)Nc2cc(C)c(O)c(-c3nc4cc(Cl)ccc4o3)c2)cc(OC)c1OC | -1%
NC(Cc1ccc2nonc2c1)C(=O)O (configuration not stated) | -16%
COc1cc(NC(=O)c2cccnc2Sc2ccc(C)c(C)c2)cc(OC)c1OC | 13%

# Continuation.
mol | VDR inhibitor
O=C(CSc1ccc(-c2ccccn2)nn1)Nc1ccc(F)c(F)c1 | -14%&8%
CCCCn1c(N)c(Sc2ccc(C)cc2)c(=O)[nH]c1=O | 17%
O=C(Nc1ccc2oc(-c3cccnc3)nc2c1)c1ccc(Br)o1 | 22%
COc1ccc(NC(=O)c2c(NC(=O)C(F)(F)F)sc3c2CCCCC3)cc1 | 0%
COc1cccc(-n2c(=O)c3sc4ccccc4c3n(CC(=O)Nc3ccccc3OC)c2=O)c1 | -7%
CN(C)c1ccc(C(O)P(=O)(OC2CCCCC2)OC2CCCCC2)cc1 (configuration not stated) | 12%
COc1ccc2c(c1)CCc1c(C(=O)Nc3c(C)nn(Cc4ccccc4C)c3C)noc1-2 | -1%
CSc1ccc(CN2CCN(C(=O)c3ccc([N+](=O)[O-])cc3)CC2)cc1 | -3%
Cc1nc(-c2ccccc2)c(Cc2ccccc2O)c(=O)[nH]1 | -16%
Nc1ccccc1/C=N\N=C/c1ccccc1N | -5%

# Additional structures follow:
mol | VDR inhibitor
CC(C)NC(=O)CSCc1ccccc1Cl | -10%
Clc1ccccc1OCCCCN1CCCC1 | 14%
N#CC1=C(O)CCCn2c1nc1ccccc1c2=O | 12%
COc1ccc(OCC(=O)NNc2c3ccccc3nc3ccccc23)cc1 | -27%
CCOC(=O)Cn1nc(CC)c2ccccc2c1=O | 3%
CCOc1ccc(C2CC(c3cccc(OC)c3)n3nc(N)nc3N2)cc1 (configuration not stated) | -16%
CC(=O)Nc1cc2c(cc1NC(=O)Cn1nc(-c3ccccc3)ccc1=O)OCCO2 | 0%
O=C(NC(=S)Nc1ccc2oc(=O)ccc2c1)c1cc2ccccc2o1 | -14%
CCN(CC)S(=O)(=O)c1ccc(N2CCCC2)c(C(=O)OCC(=O)Nc2cc(C)on2)c1 | -5%
CCOc1ccc(NCc2nnc(SCC(=O)Nc3nc(-c4ccccc4)cs3)n2-c2ccccc2)cc1 | -16%

# New compounds follow.
mol | VDR inhibitor
Cn1ccnc1SCC(=O)Nc1ccc2c(c1)OCCO2 | -14%
COc1ccc(SCC(=O)Nc2ccccc2Cl)cc1 | 5%
COc1cccc(-n2ccnc2SCC(=O)Nc2nc3ccc(C)cc3s2)c1 | 4%
CCCCc1cc2ccccc2c(OCCN(C)C)n1 | -1%&8%
CCCCCCNc1ncnc2c1sc1nc(N3CCOCC3)c3c(c12)CCCC3 | -16%
Cc1ccc2nc(-c3cc(-c4ccccc4)no3)cn2c1 | 5%
CCOC(=O)CSc1nc(N)c2c3c(sc2n1)CCCC3 | 2%
CNC(=S)NNC(=O)c1cccn(Cc2cccc(Cl)c2)c1=O | 8%

# Some of the compounds tested; rates above refer to the full screens.
